Screens from PubChem BioAssay.
gsp ag: agonists of gsp mutant (McCune-Albright syndrome) | gsp mutant cells, cAMP HTRF, 30 min; control for the full effect not named in the record | Potency, µM (highest dose often 76.9 µM), for inactives: at the highest dose activation (cAMP increase), most hits filed as activators | 0.13% of 340,000 active | AID 624287; active = well fitted activation curve with a large enough effect; inconclusive = small, poorly fitted or top-dose-only effect, or another doubt; inactive = no such curve, though single readings can be large or run the other way; cell line not stated here;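 further: phosphodiesterase inhibitor Ro 20-1724 added with compounds to block cAMP breakdown; potency means the concentration at half of the fitted maximal effect; nearly all actives have a fitted effect of over 60% in size; about a fifth of the inactives were tested at one dose only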
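Cells in DMEM/10% FBS with G418 were pretreated with compounds in DMSO plus […] (300 uM stock) for 30 min at 37C. cAMP was measured by HTRF (cAMP-d2 plus anti-cAMP antibody-K) after 30 min at room temperature.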
ClpP mod: qHTS Assay for Activators of ClpP. ATP-dependent Clp protease proteolytic subunit (Bacillus subtilis (strain 168)), P80244. purified B. subtilis ClpP, FRET peptide cleavage, 20 min. Potency, µM (doses to about 57.5 µM), inactives show at the highest dose activity change, negative = active. 1.9% of 340,000 active. AID 651965, 2013; active = well fitted falling curve with a large enough effect; inconclusive = small, poorly fitted or top-dose-only effect; inactive = no such curve, though single readings can be large or run the other way; further: potency means the concentration at half of the fitted maximal effect; the source files actives as falling curves though it sought activators and does not explain the sign; nearly all actives have a fitted effect of over 65% in size; many hits overshoot -100%
Target sequence (P80244 whole entry, looked up): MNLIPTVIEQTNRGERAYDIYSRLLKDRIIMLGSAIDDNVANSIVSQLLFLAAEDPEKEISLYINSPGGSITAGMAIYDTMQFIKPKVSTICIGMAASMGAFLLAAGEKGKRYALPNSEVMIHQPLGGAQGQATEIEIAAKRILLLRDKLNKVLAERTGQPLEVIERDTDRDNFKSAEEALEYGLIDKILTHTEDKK
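FRET quenching reversal measured ClpP activation: 10 microg/mL B. subtilis ClpP at pH 8 with the FRET-FV decapeptide, read at 430 nm after 320 nm excitation. The 20-min minus 0-min signal was scaled between DMSO/no-enzyme wells and ADEP (5.8 microM final).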
D2 PAM: potentiates the human D2 dopamine receptor allosterically; P14416; DiscoveRx D2 beta-arrestin cells, luminescence, 90 min; 100% = 57 uM dopamine signal; potentiation, % (test concentration not listed); 0.23% of 360,000 active; AID 624464; active = potentiation of 50% or more; inconclusive = 30% to 50%; inactive = 30% or less;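 further: compound concentration not given in the record; tested on top of an EC20 dose of dopamine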
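PathHunter beta-arrestin assay in DiscoveRx D2 cells. Compounds were added with an EC20 of dopamine (50 nM final) for 90 min at 37 deg C. Luminescence was read 1 h after detection reagent, with 57 uM dopamine as the EC100 control.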
gsp antagonist: antagonizes gsp, the McCune-Albright syndrome mutation. gsp-mutant cells, cAMP HTRF, 30 min; control for the full effect not named in the record. Potency, µM (doses to about 76.9 µM), without a hit: top-dose activity change, negative = inhibition, usual class: inhibitors. 0.4% of 340,000 active; active = falling curve of any shape with a large fitted effect; inconclusive = falling curve, mostly with a smaller effect; inactive = flat or rising curve; cell line not stated here;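 further: intracellular cAMP measured with PDE inhibitor Ro 20-1724 present during compound exposure; potency means the concentration at half of the fitted maximal effect; on the % scale 0 is the no-effect control and ±100 the full control effect; nearly all actives have a fitted effect of over 65% in size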
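Measurement of cellular cAMP by homogeneous time-resolved fluorescence following a 30 min compound exposure at 37C. The PDE inhibitor […] was present throughout; the assay buffer was DPBS with 0.05% BSA and 0.005% Tween 20.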
Sfp inh: blocks B. subtilis Sfp PPTase activity; Q9F4F7; Biochemical Sfp PPTase activity, qHTS; Potency, µM, for inactives: max response, negative = inhibition, usual class: inhibitors; 3.5% of 310,000 active; AID 1490; active means well fitted inhibition curve with a large enough effect; inconclusive means small, poorly fitted or top-dose-only effect, or another doubt; inactive means no such curve, though single readings can be large or run the other way;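 further: the enzyme is Sfp with the accession as filed and its product quenches rhodamine fluorescence; potency means the concentration at half of the fitted maximal effect; 0% = enzyme reaction without inhibitor and -100% = no enzyme wells; top concentration of the series not given in the record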
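Step 1, compound plus 15 nM Sfp-PPTase, 15 min, room temperature. Step 2, add rhodamine-CoA (5 uM) and BHQ-2-YbbR (12.5 uM). Step 3, read 525/598 nm fluorescence at 0 and 30 min.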
Menin-MLL FL inh: displaces fluorescein MLL peptide from human menin. Fluorescence polarization, fluorescein-MLL peptide displacement from menin. FP activity change, % at 61.4 µM. AID 1766. 290,000 tested, under 10 active; inconclusive = falling polarisation curve, or a change in total fluorescence; inactive = total fluorescence flat and polarisation flat or rising; no compound was filed as active; the % refers to the polarisation; negative = inhibition;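 further: % of control where 0% means no effect; inhibitors lower the polarisation; unlabelled MLL peptide was the positive control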
TRPV1 PAM: enhances activation of the human vanilloid receptor TRPV1; 0.02% of 320,000 active; TRPV1-expressing cells, Fluo-8 calcium influx, capsaicin EC20 potentiation; host cell line not named in the record; control for the full effect not named in the record; potentiation, % at 8.33 µM; Q8NER1; active means potentiation above 80%; inconclusive means 30% to 80%; inactive means below 30%; further: 0% is about no effect
Target sequence (Q8NER1 whole entry, looked up): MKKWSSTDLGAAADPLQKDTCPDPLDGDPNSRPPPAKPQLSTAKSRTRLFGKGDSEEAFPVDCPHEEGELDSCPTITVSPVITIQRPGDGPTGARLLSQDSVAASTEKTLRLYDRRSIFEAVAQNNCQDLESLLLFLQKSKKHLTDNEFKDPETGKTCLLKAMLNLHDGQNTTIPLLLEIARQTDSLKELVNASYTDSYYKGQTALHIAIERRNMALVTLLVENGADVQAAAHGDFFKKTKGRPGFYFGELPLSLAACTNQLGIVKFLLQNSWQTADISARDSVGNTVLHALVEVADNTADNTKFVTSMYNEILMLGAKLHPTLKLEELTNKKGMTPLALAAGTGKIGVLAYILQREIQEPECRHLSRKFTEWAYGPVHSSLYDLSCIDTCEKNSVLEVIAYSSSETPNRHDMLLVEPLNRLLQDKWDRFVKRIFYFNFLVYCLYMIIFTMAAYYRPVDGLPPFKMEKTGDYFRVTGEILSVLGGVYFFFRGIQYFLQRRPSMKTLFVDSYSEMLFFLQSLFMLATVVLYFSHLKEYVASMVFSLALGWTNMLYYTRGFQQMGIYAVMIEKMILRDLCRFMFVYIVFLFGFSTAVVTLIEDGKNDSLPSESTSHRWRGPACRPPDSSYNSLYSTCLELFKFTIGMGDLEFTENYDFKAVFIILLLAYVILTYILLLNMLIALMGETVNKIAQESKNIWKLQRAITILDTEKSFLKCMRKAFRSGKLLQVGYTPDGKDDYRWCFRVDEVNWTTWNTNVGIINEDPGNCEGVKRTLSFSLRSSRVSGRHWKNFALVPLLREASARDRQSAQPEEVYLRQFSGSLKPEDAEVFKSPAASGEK
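Cells expressing TRPV1 were dye-loaded with Fluo-8 and read kinetically: 10 s baseline, 3 min after compound (agonist portion), then 2 min after EC20 capsaicin (allosteric enhancer portion). Calcium-bound dye fluorescence at 480/520 nm.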
* hit, by the source's call; ? = inconclusive; . = no result given; [ ] = another dose, or the depositor's remark.

Sequence of screens – gsp antagonist, TRPV1 PAM, D2 PAM, Sfp inh, Menin-MLL FL inh, gsp ag, ClpP mod
CCOc1ccc(-c2cc(C(=O)O)c3ccccc3n2)c(OCC)c1
→ -16%, 6, -9, -13%, 3.5, 18%, -29%
CCN(CC)CCCNC(=O)CNC(=O)c1nn(-c2ccc(OC)c(OC)c2)c(=O)c2ccccc12
→ 11%, 7, -7, -6%, -2.7, -9%[15.4 µM], 1.4%
CC(=O)Nc1ccc(NC(=O)C(C)N(C)CC(=O)Nc2ccccc2Br)cc1 (stereo not given)
→ 1%, -13, -6, 3%, -2.4, 7%[15.4 µM], .
COCCSc1nnc(NC(=O)Cc2ccccc2OC)s1
→ -3%, 30, -9, 14%, 3.5, 6%, -4.7%
CCOC(=O)C1(C)NC(c2ccco2)C2C(=O)N(CC)C(=O)C21 (stereo not given)
→ 4%, 19, -16, 13%, -5.0, -19%, 1.5%
Nc1ccc(C(=O)OCC(=O)NC2CCCc3ccccc32)cc1[N+](=O)[O-] (stereo not given)
→ 1%, 1, 12, 14%, -0.3, -13%, 0.5%
COc1ccc(S(=O)(=O)NCC(c2cccnc2)N2CCN(c3ccc(F)cc3)CC2)cc1C (stereo not given)
→ -7%, 4, 5, 1%, 1.0, ?, -2.1%
COc1ccc(S(=O)(=O)Nc2cc(C)ccn2)cc1OC
→ 0%, 8, 15, 22%, 4.0, -3%, -1.4%
CSCC(C)N1CCC(n2nccc2NC(=O)CCOc2ccccc2)CC1 (stereo not given)
→ -5%, 2, -14, 14%, ., ?, 1.0%
O=C(CCCc1nc(-c2ccc(Cl)cc2)no1)NCC1CCCO1 (stereo not given)
→ -24%, 3, -5, 23%, 5.1, 2%[15.4 µM], 0.7%
CNc1nc(SC)nc2ccccc12
→ ., -9, -15, -5%, 0.6, 14%[15.4 µM], .
Cc1ccc(-c2cc(C(=O)N3CCCCC3)c3ccccc3n2)cc1C
→ ?, 1, -12, -25%, -4.2, -34%, 3.5%
COC(=O)c1c(NC(=O)CN2CCN(C(=O)c3ccco3)CC2)c2cc(C)ccc2n1C
→ -11%, 1, -1, -4%, 1.5, 5%, -30%
CC(=O)c1cc2c(cc1NS(=O)(=O)c1ccccc1)OCO2
→ -9%, -6, 3, 13%, 4.4, ?, -1.3%
O=C1CC2(CCN(C(=O)c3ccccc3F)CC2)Oc2ccccc21
→ -7%, 4, -2, ., ., 18%[15.4 µM], .
CC(=O)NS(=O)(=O)c1ccc(NS(=O)(=O)c2ccc3ccccc3c2)cc1
→ 5%, -2, -10, 10%, 1.0, 7%[15.4 µM], .
O=C(CNC(=O)c1cc2c(s1)CCC2)Nc1ccccc1Br
→ 7%, -3, -4, -7%, 1.6, 4%, -20%
CS(=O)(=O)N1CCN(c2ccccc2NC(=O)c2ccc(-c3ccc(Cl)cc3Cl)o2)CC1
→ ?, -13, -13, -5%, 0.1, ?, ?
C/C(=N\NC(=O)c1c(C)nc2ccccn12)c1ccc(N2CCOCC2)cc1
→ 8%, -1, 1, -5%, 3.0, ?, .
CCCOc1ccc(C(=O)CCN2CCCCC2)cc1
→ 6%, -26, -31, -26%, 2.0, ?, -0.5%
C/C(=N/NS(=O)(=O)c1ccc(F)cc1)c1ccncc1
→ 11%, 2, -9, -13%, ., ?, -1.6%
COc1ccccc1NC(=O)c1ccc(NC(=O)COC(=O)C2CCCO2)cc1 (stereo not given)
→ 0%, 5, 5, 20%, -0.6, -5%, -0.2%
CCc1ccc(NC(=O)CSc2nc3c(c(=O)n(C)c(=O)n3C)n2C)cc1
→ 4%, 13, -2, 9%, 0.2, -38%[inhibitor], -0.7%
CCc1c(C)c(C#N)c2nc3ccccc3n2c1NCC1CCCO1 (stereo not given)
→ 3%, -9, -4, 11%, 2.7, -22%, 4.0%
CCN(CC(=O)Nc1c(F)cccc1F)C(=O)c1ccc(N2C(=O)c3ccccc3C2=O)cc1
→ 1%, 3, 7, ., ., -6%[15.4 µM], -1.4%
CN(C)c1cc(-c2ccc(Cl)cc2)oc(=O)c1Cl
→ -11%, -5, -10, 10%, 0.3, 14%[15.4 µM], .
CC1=CC2(C#N)C3(N=C(N)C2(C#N)C(c2ccccc2)N1)OCCO3 (stereo not given)
→ 6%, 6, 24, -2%, -20, -5%, -11%
O=C(c1cc(Cl)ccc1O)N1CCN(S(=O)(=O)Cc2ccccc2)CC1
→ -6%, ., 0, ., ., ?, -3.4%
Cc1ccc2cc(CN(Cc3ccc(F)cc3)Cc3nnnn3C3CCCC3)c(=O)[nH]c2c1
→ -23%, 13, -9, 22µM*, ?, 20%, -2.9%
O=C1OC(=O)c2cc([N+](=O)[O-])ccc21
→ 3%, -4, -1, ., ., ., 3.1%
CN(c1ccccc1)c1ccc(/C=c2\s/c(=C(/C#N)C(=O)C(C)(C)C)n(Cc3ccco3)c2=O)cc1
→ ., -6, ., -22%, ?, ., .
Cc1ccc(C(=O)Nc2c(C(=O)N3CCOCC3)cnn2-c2ccccc2)cc1
→ 9%, ?, -8, 1%, -0.9, 1%, 1.8%
C=CCn1c(-c2ccccc2)ccc(C#N)c1=O
→ -8%, -6, -18, 1%, 0.6, 0%, ?
CC1Cc2ccccc2N1C1=NS(=O)(=O)c2ccccc21 (stereo not given)
→ -11%, 0, -8, 5%, 1.7, 0%, 0.3%
Cc1ccc(Nc2ncc(C(=O)NCCCN3CCN(C)CC3)c3ccccc23)cc1Cl
→ 9%, 4, -5, -15%, 2.1, ?, .
COc1ccccc1-n1cnc2c(c1=O)c1nc3ccccc3nc1n2-c1ccc(C)c(C)c1
→ 2%, 2, -9, -23%, 0.1, -82%[inhibitor], ?
Fc1cccc(Nc2nc3ccccc3n3nnnc23)c1
→ 9%, 2, 4, -7%, 2.1, ?, 4.2%
CC(C)C(=O)N1CCC(n2nccc2NC(=O)CCOc2ccccc2)CC1
→ 2%, -4, 3, 12%, ., 2%, -0.6%
COc1cccc(NC(=O)N[C@@H](Cc2ccccc2)C(=O)O)c1
→ -6%, 0, -2, 9%, 1.6, -1%, -3.3%
N/C(=N\NC(=O)c1cccc(F)c1)c1cc2ccccc2oc1=O
→ 0%, ., -3, -8%, 3.2, ?, -0.2%
CCN(CC)S(=O)(=O)c1ccc(N2CCN(C)CC2)c(NC(=O)Nc2ccccc2F)c1
→ 6%, -7, 2, 10%, 1.8, 2%[15.4 µM], .
CCN1CCN(C(=O)c2cc3c(-c4ccc(Cl)cc4)nn(C)c3s2)CC1
→ -15%, ., -6, 1%, -0.2, -52%[inhibitor], -11%
O=C(O)Cn1c(=O)c2cccn2c2ccccc21
→ -1%, -11, -10, 6%, -17, -1%, -23%
CC(=O)Oc1ccc2c(=O)c(Oc3ccccc3)coc2c1OC(C)=O
→ 1%, 1, 3, ?, 1.9, -34%[inhibitor], -0.7%
CCN(CC)S(=O)(=O)c1ccc(NC(=O)C2CCCN(C(=O)c3ccc(Cl)cc3)C2)cc1 (stereo not given)
→ -5%, 0, 6, -2%, 5.8, -1%[15.4 µM], -4.1%
CC1CC(=O)Nc2ccccc2N1S(=O)(=O)c1ccc(C#N)cc1 (stereo not given)
→ 10%, -3, 2, 7%, -0.4, -4%[15.4 µM], 1.4%
COc1ccc(NC(=S)N(CCCN2CCN(C)CC2)Cc2cccs2)cc1
→ 8%, 3, -9, -9%, -1.6, 13%[15.4 µM], -3.8%
Cc1ccc(-c2cc(-c3ccc(F)cc3)n[nH]2)c(O)c1
→ -12%, -1, 0, 8%, 1.1, 1%[15.4 µM], -1.0%
O=C(O)c1cccc(N2CCCCS2(=O)=O)c1
→ 8%, 2, 8, 1%, 4.9, 14%, -0.4%
CCC(=O)Nc1ccc(C(=O)OCC(=O)c2ccc(C)c([N+](=O)[O-])c2)cc1
→ 0%, -20, -2, 6%, 1.1, 22%, -1.4%
COc1cccc2cc(C(C)N(CCCN3CCOCC3)C(=S)Nc3cc(C)ccc3C)oc12 (stereo not given)
→ -12%, 0, -12, 5%, 1.2, ?, .
CN(C)c1ncc(CN2CCC(C(=O)Nc3ccc(-n4cccn4)cc3)CC2)s1
→ -15%, 1, -3, 13%, -4.2, -1%, -0.4%
CCOC(=O)c1sc(NC(=O)CSc2nc(C)cc(C)c2C#N)c(C#N)c1C
→ -17%, -15, -2, 0%, 4.6, -9%, 1.6%
Cc1cc(C)nc(NN2C(=O)C=CC2=O)n1
→ 16%, 6, -2, 14µM*, -2.0, 11%, -12%
O=C(O/N=C(/c1ccccc1)c1ccncc1)c1ccccc1[N+](=O)[O-]
→ -22%, -20, 25, 3%, -4.9, -5%[15.4 µM], -0.7%
O=C(CC(C(=O)N1CCc2ccccc21)n1ccnc1)NCc1cccnc1 (stereo not given)
→ -2%, -4, -20, 0%, 0.4, 2%, -2.5%
CCCCCC(=O)NNC(=S)NC(=O)c1ccccc1[N+](=O)[O-]
→ -4%, -1, -16, -3%, 3.3, 17%[15.4 µM], .
COc1ccc(N(Cc2cc3ccccc3[nH]c2=O)C(=O)C2CCCO2)cc1 (stereo not given)
→ 6%, 8, -4, 1%, 0.6, -31%[inhibitor], -24%
COCCn1c(N)c(S(=O)(=O)c2cccs2)c2nc3ccccc3nc21
→ -4%, ?, -17, -12%, -1.9, 2%, 32%

4 compounds from above, sorted by length of the SMILES, descending.
Sequence of screens – gsp antagonist, TRPV1 PAM, D2 PAM, Sfp inh, Menin-MLL FL inh, gsp ag, ClpP mod
CCC(=O)Nc1ccc(C(=O)OCC(=O)c2ccc(C)c([N+](=O)[O-])c2)cc1
→ 0%, -20, -2, 6%, 1.1, 22%, -1.4%
CCOC(=O)c1sc(NC(=O)CSc2nc(C)cc(C)c2C#N)c(C#N)c1C
→ -17%, -15, -2, 0%, 4.6, -9%, 1.6%
O=C(CCCc1nc(-c2ccc(Cl)cc2)no1)NCC1CCCO1 (stereo not given)
→ -24%, 3, -5, 23%, 5.1, 2%[15.4 µM], 0.7%
O=C1OC(=O)c2cc([N+](=O)[O-])ccc21
→ 3%, -4, -1, ., ., ., 3.1%
